Source: PubChem BioAssay
Vaccinia inh: blocks a specific stage of Vaccinia orthopoxvirus infection; Vaccinia-infected cells, mCherry/Venus stage reporter fluorescence; stronger effect = lower value; some inactives read as strong as hits; activity change (mCherry), % (no concentration beside the values); actives 0.01% (n = 89,000);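 active means mCherry past -33% and 40 or more points under the early reporter, replicates agreeing; inconclusive means past -33% without that gap or agreement; tested in A549 cells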;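 further: scaled between vehicle wells and reference inhibitor wells; 23 nL library stock went into each well; one replicate is shown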
Vaccinia inh Venus: recorded beside Vaccinia inh, whose call it bears; activity change (Venus), %; measured here: Venus reporter, other viral stage;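 negative = less Venus signal; first of two replicates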
Active calls of the source: *; ? = inconclusive; nt = not tested or not shown. Some of the compounds tested; count on the stated rates, not on these rows.

item	smiles	Vaccinia inh	Vaccinia inh Venus
1	COc1ccc(CN(C)C[C@H]2Oc3c(NC(=O)c4cc(C)nn4C)cccc3C(=O)N([C@H](C)CO)C[C@@H]2C)cc1	18	17
2	O=C(C[C@@H]1CC[C@@H](NC(=O)C2CC2)[C@H](CO)O1)NCC1CC1	0	1
3	O=C(c1cccnc1)N1CC(=O)N2[C@H](CO)[C@@H](c3ccc(-c4ccc(F)cc4)cc3)[C@H]2C1	-9	-1
4	O=C1O[C@@H](c2ccccc2)[C@@H](c2ccccc2)N2[C@@H](c3ccc(OCCO)cc3)[C@]3(C(=O)Nc4ccc(C#CC5(O)CCCCCC5)cc43)[C@@H](C(=O)N3CCCCCCC3)[C@H]12	-10	37
5	C[C@@H]1CN([C@@H](C)CO)C(=O)c2cc(C#CCN(C)C)cnc2O[C@@H]1CN(C)C(=O)c1ccc(F)cc1	9	-1
6	O=C(CN1CCOCC1)NCC[C@@H]1CC[C@H](NC(=O)c2ccc3c(c2)OCO3)[C@@H](CO)O1	-1	3
7	C[C@H]1CN([C@@H](C)CO)C(=O)c2cccc(NC(=O)C3CCOCC3)c2O[C@H]1CN(C)S(=O)(=O)c1cn(C)cn1	8	4
8	O=C(C[C@H]1CC[C@H](NC(=O)CCN2CCCCC2)[C@H](CO)O1)Nc1ccc(-c2ccccc2)cc1	?	nt
9	C[C@@H]1CN([C@@H](C)CO)S(=O)(=O)c2ccc(-c3cncnc3)cc2O[C@H]1CN(C)Cc1ccncc1	-10	1
10	CCCNC(=O)[C@H]1[C@H](CO)[C@H]2Cn3c(cccc3=O)[C@H]2N1Cc1ccccn1	15	22
11	C[C@H]1CCCCO[C@H](CN(C)C(=O)Nc2ccc(F)cc2)[C@@H](C)CN([C@@H](C)CO)C(=O)c2cc(NC(=O)Nc3ccccc3)ccc2O1	-18	-12
12	CCN1C[C@@H](C)[C@H](OC)CN(C)C(=O)c2ccc(NC(=O)c3ccno3)cc2OC[C@H]1C	4	6
13	O=C(C[C@@H]1C=C[C@H](NC(=O)Cc2cccnc2)[C@H](CO)O1)Nc1ccc(-c2ccccc2)cc1	10	1
14	CN(C)C(=O)c1cccc(-c2ccc(C3[C@@H]4CN(Cc5ccc6c(c5)OCO6)C[C@H]3N4)cc2)c1 (stereo partly specified)	-14	-9
15	COC(=O)C[C@@H]1CC[C@H]2[C@@H](COc3ccc(NC(=O)c4ccc(F)c(F)c4)cc3C(=O)N2C)O1	8	9
16	C[C@@H]1CN([C@H](C)CO)C(=O)c2cc(C#Cc3ccccc3F)cnc2O[C@H]1CN(C)C(=O)Cc1ccncc1	12	12
17	CC(C)NC(=O)Nc1ccc2c(c1)C(=O)N([C@@H](C)CO)C[C@H](C)[C@H](CN(C)C(=O)Nc1ccc(C(F)(F)F)cc1)O2	5	-5
18	C[C@@H]1CN([C@H](C)CO)S(=O)(=O)c2ccc(-c3cccc(F)c3)cc2O[C@H]1CN(C)S(C)(=O)=O	-5	-13
19	COc1ccc(CN(C)C[C@@H]2OCCCC[C@@H](C)Oc3ccc(NC(=O)c4ccncc4)cc3C(=O)N([C@@H](C)CO)C[C@@H]2C)cc1	-8	-8
20	O=C(Nc1ccccc1)N1C[C@H]2[C@@H](c3ccccc31)[C@H](CO)N2C(=O)c1cccnc1	9	3
21	COc1ccc(NC(=O)N(C)C[C@@H]2Oc3ccc(NC(=O)c4ccncc4)cc3C(=O)N([C@H](C)CO)C[C@@H]2C)cc1	9	3
22	CO[C@H]1CN(C)C(=O)c2cc(NC(=O)C3CCOCC3)ccc2OC[C@@H](C)N(Cc2nccs2)C[C@H]1C	3	2
23	CNC[C@@H]1Oc2c(NC(=O)NC(C)C)cccc2C(=O)N([C@@H](C)CO)C[C@H]1C	8	17
24	O=C(C[C@H]1C[C@H]2c3cc(NS(=O)(=O)c4ccccc4)ccc3O[C@H]2[C@H](CO)O1)NC1CCCCC1	-7	-10
25	COc1ccc(NC(=O)Nc2ccc3c(c2)[C@H]2C[C@H](CC(=O)NCc4ccccc4F)O[C@H](CO)[C@H]2O3)cc1	13	5
26	C[C@@H](NC(=O)C[C@H]1C=C[C@H](NC(=O)c2cccnc2)[C@H](CO)O1)c1ccccc1	1	3
27	CO[C@H]1CN(C)C(=O)c2cc(NC(=O)CC(F)(F)F)ccc2OC[C@H](C)N(C(=O)C2CC2)C[C@@H]1C	5	10
28	CNC[C@H]1OCCCC[C@@H](C)Oc2ccc(NC(=O)Nc3cccc4ccccc34)cc2C(=O)N([C@@H](C)CO)C[C@H]1C	8	4
29	COCC#Cc1ccc2c(c1)O[C@H](CN(C)C(=O)C1CCOCC1)[C@H](C)CN([C@H](C)CO)S2(=O)=O	9	10
30	Cc1ccc(S(=O)(=O)Nc2ccc3c(c2)C(=O)N([C@@H](C)CO)C[C@H](C)[C@H](CN(C)C(=O)NC2CCCCC2)O3)cc1	-18	-18
31	C[C@@H]1CN([C@H](C)CO)C(=O)c2cccc(NC(=O)c3cnccn3)c2O[C@@H]1CN(C)Cc1ccc(C(=O)O)cc1	19	21
32	CO[C@@H]1CN(C)C(=O)c2ccc(NC(=O)C3CCCC3)cc2OC[C@@H](C)N(Cc2cccnc2)C[C@H]1C	-4	-7
33	C[C@@H]1CN([C@@H](C)CO)C(=O)Cc2cc(NS(C)(=O)=O)ccc2O[C@H]1CN(C)C(=O)Nc1cccc2ccccc12	34	24
34	C[C@@H]1CN([C@@H](C)CO)C(=O)c2cc(NS(=O)(=O)c3ccc(Cl)cc3)ccc2O[C@@H](C)CCCCO[C@@H]1CN(C)C(=O)Nc1cccc2ccccc12	41	34
35	C[C@H]1CN([C@@H](C)CO)C(=O)Cc2cc(NC(=O)Nc3ccccc3)ccc2O[C@@H]1CN(C)C(=O)Nc1ccc2c(c1)OCO2	8	3
36	CO[C@H]1CN(C)C(=O)c2ccc(NC(=O)CC(F)(F)F)cc2OC[C@H](C)N(C(=O)C2CCOCC2)C[C@@H]1C	11	17
37	CCN1[C@@H]2c3ccc(-c4ccccc4)c(=O)n3C[C@H]1[C@H](CO)[C@H]2C(=O)Nc1ccccc1	4	9
38	CC(C)CC#Cc1ccc2c(c1)O[C@@H](CN(C)C(=O)Nc1ccccc1)[C@@H](C)CN([C@H](C)CO)S2(=O)=O	-26	-9
39	CN(C)C(=O)c1ccc(-c2ccc([C@@H]3[C@H](CO)N4CCCCN(S(C)(=O)=O)C[C@@H]34)cc2)cc1	26	5
40	COc1cccc(S(=O)(=O)Nc2ccc3c(c2)C(=O)N(C)[C@H]2CC[C@@H](CC(=O)NCC4CCCCC4)O[C@H]2CO3)c1	?	nt
41	COc1ccc(NC(=O)N(C)C[C@@H]2OCCCC[C@@H](C)Oc3ccc(NS(=O)(=O)c4ccc(Cl)cc4)cc3C(=O)N([C@H](C)CO)C[C@H]2C)cc1	-24	-13
42	C[C@@H]1CCCCO[C@H](CN(C)C)[C@H](C)CN([C@H](C)CO)C(=O)c2cc(NC(=O)Nc3ccc4c(c3)OCO4)ccc2O1	-3	-8
43	C[C@H]1CN([C@@H](C)CO)C(=O)c2cc(NC(=O)Cc3cn(C)c4ccccc34)ccc2O[C@@H]1CN(C)S(=O)(=O)c1cccs1	11	2
44	COc1cccc(S(=O)(=O)Nc2ccc3c(c2)C(=O)N(C)[C@@H]2CC[C@@H](CC(=O)NCC4CCCCC4)O[C@@H]2CO3)c1	13	1
45	CCCc1cn(CC[C@@H]2CC[C@@H](NC(=O)C3CCCCC3)[C@@H](CO)O2)nn1	4	3
46	COc1ccc(CNC(=O)C[C@@H]2C=C[C@H](NS(=O)(=O)c3cccc(OC)c3)[C@H](CO)O2)cc1	-5	-2
47	C[C@H](CO)N1C[C@H](C)[C@@H](CN(C)C(=O)c2ccccc2)OCCCC[C@H](C)Oc2ccc(NC(=O)c3ccncc3)cc2C1=O	4	3
48	CCC(=O)N1CCCCN2[C@@H](CO)[C@@H](c3ccc(-c4cccc(C#N)c4)cc3)[C@@H]2C1	1	-12
49	Cc1noc(C)c1NC(=O)N(C)C[C@@H]1Oc2ccc(N(C)C)cc2C(=O)N([C@H](C)CO)C[C@H]1C	0	3
50	Cc1noc(C)c1NC(=O)N(C)C[C@@H]1Oc2ccc(NC(=O)CCCCCC(=O)Nc3ccccc3N)cc2C(=O)N([C@@H](C)CO)C[C@@H]1C	44	21
51	CO[C@@H]1CN(C)C(=O)c2cc(NC(=O)Nc3ccccc3F)ccc2OC[C@H](C)N(C(C)=O)C[C@H]1C	20	12
52	CC(C)(C)[S@](=O)N1Cc2cc(C(=O)NCC(F)(F)F)nc(-c3cccc(-c4cccc(F)c4)c3)c2[C@@H]1CCO	?	nt
53	CO[C@H]1CN(C)C(=O)c2ccc(NC(=O)C3CC3)cc2OC[C@H](C)N(C(=O)C2CCOCC2)C[C@@H]1C	13	11
54	Cc1noc(C)c1S(=O)(=O)N(C)C[C@H]1OCCCC[C@@H](C)Oc2ccc(NC(=O)NC3CCCCC3)cc2C(=O)N([C@@H](C)CO)C[C@H]1C	-26	-13
55	COc1ccc(NC(=O)N(C)C[C@H]2Oc3ccc(NC(=O)Cn4cnnn4)cc3CC(=O)N([C@@H](C)CO)C[C@H]2C)cc1	11	16
56	C[C@@H](NC(=O)C[C@H]1C[C@H]2c3cc(NS(C)(=O)=O)ccc3O[C@H]2[C@H](CO)O1)c1ccccc1	-7	-3
57	C[C@@H]1CN([C@@H](C)CO)S(=O)(=O)c2ccc(C3=CCCC3)cc2O[C@H]1CN(C)S(=O)(=O)c1cn(C)cn1	19	21
58	C[C@H]1CN([C@@H](C)CO)C(=O)c2cc(NC(=O)Cc3cn(C)c4ccccc34)ccc2O[C@H]1CN(C)S(=O)(=O)c1ccc(Cl)cc1	-7	-5
59	CCC(=O)Nc1ccc2c(c1)OC[C@@H](C)N(Cc1ccccn1)C[C@H](C)[C@H](OC)CN(C)C2=O	11	13
60	Cc1ccc(S(=O)(=O)N[C@@H]2CC[C@@H](CC(=O)NC3CCCCC3)O[C@H]2CO)cc1	-10	0

Entries of single compounds, quoted from the list. Order of screens: Vaccinia inh	Vaccinia inh Venus
Cc1ccc(S(=O)(=O)N[C@@H]2CC[C@@H](CC(=O)NC3CCCCC3)O[C@H]2CO)cc1 is listed with -10	0
COc1cccc(S(=O)(=O)Nc2ccc3c(c2)C(=O)N(C)[C@@H]2CC[C@@H](CC(=O)NCC4CCCCC4)O[C@@H]2CO3)c1 is listed with 13	1
CCC(=O)Nc1ccc2c(c1)OC[C@@H](C)N(Cc1ccccn1)C[C@H](C)[C@H](OC)CN(C)C2=O is listed with 11	13
Cc1noc(C)c1NC(=O)N(C)C[C@@H]1Oc2ccc(N(C)C)cc2C(=O)N([C@H](C)CO)C[C@H]1C is listed with 0	3
Cc1noc(C)c1S(=O)(=O)N(C)C[C@H]1OCCCC[C@@H](C)Oc2ccc(NC(=O)NC3CCCCC3)cc2C(=O)N([C@@H](C)CO)C[C@H]1C is listed with -26	-13

Carrying on:
item	smiles	Vaccinia inh	Vaccinia inh Venus
61	CNC[C@H]1Oc2cc(-c3cccnc3)ccc2S(=O)(=O)N([C@H](C)CO)C[C@@H]1C	5	5
62	CO[C@H]1CN(C)C(=O)c2ccc(NC(=O)Nc3ccc(Cl)cc3)cc2OC[C@H](C)N(C)C[C@H]1C	-28	-18
63	C[C@@H]1CN([C@@H](C)CO)C(=O)c2cc(NS(C)(=O)=O)ccc2O[C@@H](C)CCCCO[C@@H]1CN(C)Cc1ccc2c(c1)OCO2	-5	-8
64	CCCN(C)C[C@H]1Oc2ncc(C#CCN(C)C)cc2C(=O)N([C@@H](C)CO)C[C@H]1C	19	13
65	O=C(N[C@@H]1CC[C@H](CCNS(=O)(=O)Cc2ccccc2)O[C@@H]1CO)c1cnccn1	-7	-6
66	C[C@H](CO)N1C[C@H](C)[C@@H](CN(C)Cc2ccc(-c3ccccc3)cc2)Oc2ncc(-c3cccnc3)cc2C1=O	?	nt
67	C[C@@H]1CN([C@@H](C)CO)C(=O)Cc2cc(NC(=O)Nc3ccccc3)ccc2O[C@@H]1CN(C)S(=O)(=O)c1ccccc1	-3	-1
68	COc1ccc(NC(=O)Nc2ccc3c(c2)C(=O)N([C@H](C)CO)C[C@@H](C)[C@@H](CN(C)S(=O)(=O)c2ccc(C)cc2)O3)cc1	-22	-9
69	CCC(=O)N(C)C[C@H]1Oc2cc(C#CCC3CCCC3)ccc2S(=O)(=O)N([C@H](C)CO)C[C@@H]1C	-13	-11
70	C[C@H](CO)N1C[C@H](C)[C@H](CN(C)S(=O)(=O)c2ccccc2)Oc2ncc(C#CC3(O)CCCC3)cc2C1=O	11	10
71	CO[C@@H](CN(C)Cc1nccs1)[C@@H](C)CN([C@@H](C)CO)S(=O)(=O)c1ccc(F)cc1	14	15
72	CCS(=O)(=O)Nc1ccc2c(c1)C(=O)N(C)C[C@H](OC)[C@H](C)CN(CC1CCCCC1)[C@H](C)CO2	-3	3
73	C[C@@H]1CN([C@H](C)CO)C(=O)c2cc(NC(=O)Nc3ccc(F)cc3)ccc2O[C@H]1CN(C)CC1CCCCC1	-7	-1
74	COc1cccc(NC(=O)N(C)C[C@@H]2OCc3ccccc3-c3ccccc3C(=O)N([C@H](C)CO)C[C@H]2C)c1	19	-5
75	Cc1noc(C)c1S(=O)(=O)Nc1ccc2c(c1)C(=O)N([C@H](C)CO)C[C@H](C)[C@@H](CN(C)C(=O)C1CCCCC1)OCCCC[C@@H](C)O2	1	-4
76	CO[C@H]1CN(C)C(=O)c2cc(NC(C)=O)ccc2OC[C@@H](C)N(C(=O)c2ccccn2)C[C@@H]1C	19	12
77	CCCNC(=O)N1C[C@H](C)[C@H](OC)CN(C)C(=O)c2cc(NS(C)(=O)=O)ccc2OC[C@@H]1C	7	7
